# LASV entry inh = Lassa virus entry inhibition | actives 1.2% (n = 300,000) | Potency, µM (highest dose often 37.9 µM), for inactives: at the highest dose activity change, negative = inhibition, hits mostly inhibitors | Lassa virus pseudotype entry inhibition, cell reporter; control for the full effect not named in the record; active means well fitted inhibition curve with a large enough effect; inconclusive means small, poorly fitted or top-dose-only effect, or effect the other way; inactive means flat fitted curve, though single readings scatter; tested in HEK293 cells; note: % is set by controls: 0 for no effect and ±100 for the full control effect; nearly all actives have a fitted effect of over 50% in size; luciferase read-out
# StopGo reporter = FMDV 2A StopGo reporter, luciferase signal | actives 1.2% (n = 410,000) | Potency, µM (top dose mostly 57.9 µM), for inactives: at the top dose signal change, negative = less light | AID 1159524 | human cells with a luciferase reporter of 2A StopGo recoding; control for the full effect not named in the record; active = well fitted falling curve with a large enough effect; inconclusive = small, poorly fitted or top-dose-only effect; inactive = no such curve, though single readings can be large or run the other way; tested in HEK293T cells; note: % is set by controls: 0 for no effect and ±100 for the full control effect; nearly all actives have a fitted effect of over 45% in size; luciferase light after 4 h
# MARV entry inh = inhibitors of Marburg virus binding or cell entry | actives 1.8% (n = 300,000) | Potency, µM (highest dose often 37.8 µM), inactives show top-dose activity change, negative = inhibition, hits mostly inhibitors | Marburg virus pseudotyped entry inhibition, cell reporter; control for the full effect not named in the record; about a third of the inactives were read at about 46 µM; active = well fitted inhibition curve with a large enough effect; inconclusive = small, poorly fitted or top-dose-only effect, or effect the other way; inactive = flat fitted curve, though single readings scatter; tested in HEK293 cells; about a fifth of its hits are not listed in these tables; note: % is set by controls: 0 for no effect and ±100 for the full control effect; luciferase read-out
# RE007 growth inh = less growth of the S. pombe RE007 Vpr strain; S. pombe RE007 Vpr strain, BacTiter-Glo ATP luminescence, 24 h; control for the full effect not named in the record; Potency, µM (top dose mostly 92.2 µM), for inactives: top-dose activity change, negative = less growth; actives 0.21% (n = 360,000); active = well fitted falling curve with a large enough effect; inconclusive = small, poorly fitted or top-dose-only effect; inactive = no such curve, though single readings can be large or run the other way;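 note: % is set by controls: 0 for no effect and ±100 for the full control effect; nearly all actives have a fitted effect of over 50% in size; the assay follows cell death caused by Vpr and the record does not say whether a fall means rescue or toxicity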
#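 Fission yeast RE007 carrying one integrated HIV-1 vpr copy, seeded at OD 0.01 in PMG+AL medium with 23 nL pinned compound. Grown 24 h at 30 degrees; viability read by BacTiter-Glo luminescence after 5 min.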
# Cruzain Triton = cruzain (T. cruzi) inhibition with detergent | Potency, µM, inactives show max response, negative = inhibition, actives largely listed as inhibitors | purified cruzain, Z-FR-AMC fluorescence, 0.01% Triton | P25779 | actives 0.43% (n = 200,000); active = well fitted curve in the direction sought with a large enough effect; inconclusive = small, poorly fitted or top-dose-only effect, or another doubt; inactive = no such curve, though single readings can be large; an effect the other way counts as inactive or inconclusive;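 note: plate controls were neutral wells for no effect and buffer without enzyme for full effect; nearly all actives have a fitted effect of over 40% in size; top concentration of the series not given in the record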
# Target sequence (P25779 123-467 limits assumed): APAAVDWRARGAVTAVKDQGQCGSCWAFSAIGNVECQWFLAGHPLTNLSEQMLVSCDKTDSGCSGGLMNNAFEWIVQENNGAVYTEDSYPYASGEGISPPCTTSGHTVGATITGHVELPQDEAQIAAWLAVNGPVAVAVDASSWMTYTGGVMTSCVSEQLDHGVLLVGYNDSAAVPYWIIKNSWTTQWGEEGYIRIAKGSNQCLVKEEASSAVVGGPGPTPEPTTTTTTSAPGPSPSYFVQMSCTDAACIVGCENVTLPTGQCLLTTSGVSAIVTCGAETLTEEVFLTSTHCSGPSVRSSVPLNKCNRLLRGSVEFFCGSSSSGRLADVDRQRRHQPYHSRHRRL
#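 Cruzain (1.5 nM) preincubated 15 min at RT with compound in 100 mM sodium acetate pH 5.5, 5 mM DTT, 0.01% Triton X-100. Reaction started with 2 uM Z-FR-AMC; AMC fluorescence (ex 360/em 450 nm) change over 60 s gave rate.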
# SARS PLP yeast = blocks SARS-CoV papain-like protease in a yeast assay; actives 0.19% (n = 330,000); S. cerevisiae expressing SARS-CoV PLpro, growth rescue; control for the full effect not named in the record; Potency, µM (highest dose often 32.9 µM), without a hit: at the highest dose activity, positive = growth rescue; note: 0% is about no effect; nearly all actives have a fitted effect of over 55% in size; growth read by luminescence after 48 h
# Cruzain inh noDet = blocks cruzain activity in detergent-free assay | purified cruzain, Z-FR-AMC fluorescence, no detergent | actives 2.3% (n = 200,000) | Potency, µM, for the others: max response, negative = inhibition, hits mostly inhibitors | P25779; active = well fitted curve in the direction sought with a large enough effect; inconclusive = small, poorly fitted or top-dose-only effect, or another doubt; inactive = no such curve, though single readings can be large; an effect the other way counts as inactive or inconclusive;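 note: plate controls were enzyme without inhibitor for no effect and buffer without enzyme for full effect; nearly all actives have a fitted effect of over 40% in size; top concentration of the series not given in the record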
#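 Detergent-free condition (0.00005% Triton X-100) in acetate buffer pH 5.5 with DTT. 1.5 nM enzyme and compound were pre-mixed 15 min, then 2 uM Z-FR-AMC substrate added; reaction progress from fluorescence change between first and third reads (60 s).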
# NS1 inh = inhibitors of influenza NS1 protein function. Potency, µM (series often up to 46.1 µM), inactives show at the top dose activity, positive = more growth. S. cerevisiae slowed by influenza A NS1, growth recovery by OD600. actives 0.4% (n = 270,000); note: actives are rising curves; nearly all actives have a fitted effect of over 50% in size
#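 OD600 was taken as the measure of yeast growth restored by compound in an NS1-expressing S. cerevisiae strain. Cells had been washed out of glucose medium and diluted 1:100 into galactose -URA medium, pH 6.0.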
# * = called active by the depositor; ? = inconclusive; / = not tested or not shown; & = joins results of further samples; [ ] = dose if it differs, or a comment. Unless noted, calls come from the whole dose curve; as a rule, active means well fitted rising curve with a large enough effect; inconclusive means small, poorly fitted or top-dose-only effect; inactive means no such curve, though single readings can be large or run the other way. Potency is the fitted concentration of half-maximal effect.
compound	LASV entry inh	StopGo reporter	MARV entry inh	RE007 growth inh	Cruzain Triton	SARS PLP yeast	Cruzain inh noDet	NS1 inh
CC(=O)N(C(C)=O)c1cccc(N(Cc2ccccc2)Cc2ccccc2)c1	?	-24%	?	19%	/	/	/	/
COc1cc(OC)c2ccc(=O)oc2c1C(CCN1CCCC1)c1ccc2c(c1)OCO2 (stereo unspecified)	/	-3%	/	6%	/	7%	/	4%
CCN1C(=NCc2ccco2)N[C@@H](c2cccc(C(F)(F)F)c2)C(C(=O)OC)=C1C	/	-25%	/	-10%	/	-2%&-3%	/	8%
CC(C)c1ccc(N(C(=O)c2cc3ccccc3oc2=O)C2C=CS(=O)(=O)C2)cc1 (stereo unspecified)	?	-13%	7%	26%	-2.5%	-18%	1%	0%
Cn1nc(C(=O)Nc2ccc(-n3cnnn3)cc2)c2ccccc2c1=O	4%[46.1 µM]	-16%	-3%[46.1 µM]	0%	/	-3%	/	/
Cc1[nH]n(S(=O)(=O)Cc2ccccc2)c(=O)c1N=Nc1ccccc1Cl	-12%	5%	7%[46.1 µM]	-1%	/	-11%	/	/
CCOc1ccc(NS(=O)(=O)c2ccc(NC(=O)C3CCCO3)cc2)cc1 (stereo unspecified)	8.9µM*	-22%	-23%	1%	-0.6%	4%	-16%	-59%
O=C(c1ccc(CSc2nc3ccncc3n2Cc2ccccc2F)cc1)N1CCCCC1	/	29%	6%[46.1 µM]	/	-7.6%	/	-1%	/
O=C(CSc1nnc(CNC(=O)c2c(F)cccc2Cl)o1)NCCc1ccccc1	-5%[46.1 µM]	6%	-7%[46.1 µM]	-10%	/	-5%	/	-5%
Cc1cc(SCc2ccc(Br)cc2)nc(=O)[nH]1	/	12%	/	0%	/	-5%	/	4%
OC(CN1CCN(c2ncc(C(F)(F)F)cc2Cl)CC1)c1ccccc1 (stereo unspecified)	/	-24%	/	4%	/	-3%	/	-4%
O=C(O)Cn1nc(-c2ccc(F)cc2)oc1=O	8%	4%	22%	18%	4.5%	-2%	5%	?
N#CC(C#N)=C(N)c1cccnc1	1%	-9%	14%[46.1 µM]	0%	/	-1%	/	2%
Cc1nnc2ccc(-c3cccc(NS(=O)(=O)c4ccccc4Cl)c3)nn12	-15%	?	?	9%	/	-2%	/	/
Cc1nc(SCC(=O)OCc2ccccc2)c2c(=O)n(C)c(=O)n(C)c2n1	/	-28%	/	6%	2.9%	?	?	-44%
COC(=O)CCCn1nc(NC(=O)c2ccco2)cc1C	/	32%[activator]	/	1%	/	0%	/	-1%
O=C(Nc1cc(F)ccc1F)N1CCN(c2ccnc3cc(Cl)ccc23)CC1	/	32µM*	/	-1%	/	-2%	/	1%
CCOc1nc(SCCOc2ccc(C)cc2)nc(N(C)C)n1	-6%	0%	-3%&-3%	-6%	-17%	-41%	-16%	-25%
CN1CCN(c2nc3c(c(=O)n(C)c(=O)n3C)n2Cc2ccccc2Cl)CC1	/	-15%	/	2%	/	2%	/	2%
Nc1ccccc1-c1ccn[nH]1	-9%[46.1 µM]	16%	?	-2%	/	/	/	/
CCN(CC)S(=O)(=O)c1ccc(C(=O)NNC(=O)C2CCN(S(=O)(=O)c3ccc(Cl)cc3)CC2)cc1	0%	-2%	-9%	0%	-3.8%	17%	3%	-4%
COc1cccc(NC(=O)C(C)NS(=O)(=O)c2ccc(Br)cc2)c1 (stereo unspecified)	16%	-1%	1%	-9%	/	-1%	/	12%
CC1(C)CC2CC(C)(CN2C(=O)COC(=O)c2cc(Cl)cc(Cl)c2N)C1 (stereo unspecified)	1%	-15%	4%	7%	-8.2%	2%	0%	0%
O=C(Nc1cccc2ncccc12)C(c1ccccc1)c1ccccc1	-3%	-2%	-26%	-9%	/	1%	/	-2%
O=C(N/N=C/c1ccc(Cl)cc1Cl)c1n[nH]c2c1CCCC2	?	47%[activator]	?	10%	-2.3%	-19%	?	1%

# Pulled by compound from above:
compound	LASV entry inh	StopGo reporter	MARV entry inh	RE007 growth inh	Cruzain Triton	SARS PLP yeast	Cruzain inh noDet	NS1 inh
N#CC(C#N)=C(N)c1cccnc1	1%	-9%	14%[46.1 µM]	0%	/	-1%	/	2%
CC1(C)CC2CC(C)(CN2C(=O)COC(=O)c2cc(Cl)cc(Cl)c2N)C1 (stereo unspecified)	1%	-15%	4%	7%	-8.2%	2%	0%	0%

# Later entries
compound	LASV entry inh	StopGo reporter	MARV entry inh	RE007 growth inh	Cruzain Triton	SARS PLP yeast	Cruzain inh noDet	NS1 inh
CCN1CCN(C(=O)N(Cc2ccc(Cl)cc2)S(=O)(=O)c2ccc(C)cc2)CC1	2%	-3%	10%	-8%	/	2%	/	/
Cc1cc(C)nc(SCC(=O)Nc2ccccc2[N+](=O)[O-])n1	-21%	23%	2%	22%	3.1%	4%	-9%	-10%
COCCCNC(=O)c1ccc(Cn2c(=O)c3ccccc3n(CC(=O)Nc3ccc(C)cc3C)c2=O)cc1	-17%[46.1 µM]	-20%	?	/	-5.6%	/	10%	/
C=CCN1CCc2cccc3c2[C@H]1Cc1ccc(O)c(O)c1-3	?	-14%	?	?	/	-6%	/	7%
O=C(O)c1cccc(-n2cnnn2)c1	15%	-17%	21%	-7%	2.1%	11%	-15%	-15%
Cc1ccc(-n2ncc(C(=O)NCCc3ccsc3)c2C2CCN(C(=O)OC(C)(C)C)CC2)cc1C	?	43%[activator]	/	/	-2.4%	/	?	/
CCN(CC)S(=O)(=O)c1cc(NS(=O)(=O)c2cc(Cl)ccc2Cl)ccc1C	?	38%[activator]	-15%	-3%	-9.7%	6%	-22%	-3%
Cc1ccc(S(=O)(=O)NN/C(=N/S(=O)(=O)c2ccccc2)c2ccccc2)cc1	/	24%	/	-16%	/	1%	/	1%
Cc1cccc(C(=O)NNC(=O)c2ccccc2)c1	27%	22%	?	5%	-2.1%	21%	11%	2%
O=C(CSc1nnc(-c2ccco2)n1Cc1ccccc1)c1ccc(F)cc1	2%	31%[activator]	-1%	18%	-15%	16%	15%	?
CN(C)c1ccc(-c2nnc(-c3ccccc3F)o2)cc1	/	4%	/	-14%	/	-10%	/	-27%
COCCCNC(=O)Cn1nc(-c2ccc(C)cc2)ccc1=O	-14%	/	5%&5%	12%	0.6%	-5%	15%	-5%
CC1CCCN(c2ncnc3c2cnn3-c2ccc(Cl)cc2)C1 (stereo unspecified)	/	25µM*	/	0%	/	0%	/	10%
O=C(C1CCCCC1)N1CCCC(c2nc3c(nnn3Cc3ccccc3)c(=O)[nH]2)C1 (stereo unspecified)	45%[14.3 µM]	-4%	12%	-3%	-12%	-3%	-1%	0%
Cc1ccc(-c2nnc(SCC(=O)NNC(=O)COc3cccc(C)c3)n2C)cc1	22%[14.3 µM]	16%	6%	4%	0.6%	-5%	-4%	10%
NS(=O)(=O)c1ccc(CCNC(=O)CCCn2c(=O)[nH]c3ccc(Br)cc3c2=O)cc1	-8%[46.1 µM]	8%	20%[46.1 µM]	-10%	/	-1%	/	/
CC(C)C(NC(=O)c1c(F)cccc1F)C(=O)NCCc1ccc(S(N)(=O)=O)cc1 (stereo unspecified)	/	6%	?	-11%	/	1%	/	-3%
Cc1cccc(Nc2nc3ccccc3s2)c1C	?	-13%	?	14%	-7.8%	19%	-18%	16%
COc1ccccc1C(=O)N1CCN(Cc2cn[nH]c2-c2ccc(F)cc2F)CC1	/	-2%	/	6%	/	0%	/	3%
CCN(CC)CCCNC(=O)c1nn(-c2ccccc2OC)c(=O)c2ccccc12	?	0%	/	2%	1.1%	1%	-2%	-6%
CCC(=O)Nc1cc2c(cc1C(=O)CC)OCCO2	13%	-24%	1%	?	-4.5%	-2%	0%	-9%
Cc1ccccc1NS(=O)(=O)c1ccc(C(=O)N2CCC2)cc1	20%	-5%	-8%	-14%	/	-3%	/	/
CCOc1cnc(-c2c(-c3ccccc3Cl)noc2C)o1	-5%	-23%	-12%[14.2 µM]	-12%	/	-2%	/	/
CC(=O)Nc1nonc1-c1nc2ccccc2n1Cc1nnc(C)o1	-18%	9%	2%	6%	3.6%	1%	-7%	7%
O=C(C(=O)N1CCc2ccccc2C1)c1c[nH]c2ccccc12	/	58%[activator]	/	-5%	/	0%	/	-5%
CSc1ccc(-c2nnn(CC(=O)Nc3sc4c(c3C#N)CCC(C(C)(C)C)C4)n2)cc1 (stereo unspecified)	5%[46.1 µM]	-2%	-2%[46.1 µM]	/	0.1%	/	5%	/
O=S(=O)(c1ccc2ccccc2c1)N1CCOCC1	5%[46.1 µM]	6%	-2%[46.1 µM]	-19%	/	1%	/	5%
CCOc1ccc(-n2nc3c(=S)[nH]nc(C)c3c2C)cc1	?	-16%	?	4%	-3.5%	13%	-5%	15%
CCOCCCNC(=O)C(NC(=O)Cc1cccs1)c1ccc(C)cc1 (stereo unspecified)	0%	22%	-2%[46.1 µM]	-4%	/	-1%	/	/
Cc1cc(N2C(=O)C(O)=C(C(=O)c3ccco3)C2c2cccc(Cl)c2)no1 (stereo unspecified)	/	35%[activator]	/	-2%	/	1%	/	2%
CCCCOc1ccc(CN=C(N)N)cc1Cl	/	?	/	1%	/	-3%	/	4%
COc1ccc(C(=O)O/N=C(/c2cccs2)C(C)(C)C)cc1	/	-7%	/	12%	/	-3%	/	-3%
Cc1ccccc1C(=O)Nc1cc2c(cc1N1CCOCC1)n(C)c(=O)n2C	0%[46.1 µM]	0%	10%[46.1 µM]	/	-0.8%	/	3%	/
Cc1ccc(NC(=O)CCC(=O)NNC(=O)c2cccs2)c(C)c1	2%	11%	0%	-8%	5.4%	0%	-1%	6%
Cc1cc(C)nc(SCc2nc3ncccn3c2Br)n1	-1%	3%	?	-7%	4.9%	-5%	-3%	-8%
COc1ccc(C)cc1S(=O)(=O)N(C)CC(=O)NC1CC1	0%	21%	20%	3%	-1.8%	-10%	0%	2%

# Compounds as they come; any-hit rate near 4.7%.
